# From PubChem BioAssay
# Vaccinia mCherry = inhibitors of vaccinia virus infection (mCherry reporter signal) | Potency, µM (doses to about 36.5 µM), without a hit: at the top dose activity change, negative = inhibition, most hits filed as inhibitors | Vaccinia virus mCherry reporter infection, fluorescence; about a quarter of the inactives have no number | 310,000 tested, 0.63% active; active = well fitted inhibition curve with a large enough effect; inconclusive = small, poorly fitted or top-dose-only effect; inactive = no such curve, though single readings can be large or run the other way; tested in A549 cells; also: nearly all actives have a fitted effect of over 35% in size; inactives centre near -10
# VACV Venus inh = vaccinia inhibition (Venus reporter) | Vaccinia virus Venus reporter expression, fluorescence | Potency, µM (top dose mostly 36.5 µM), without a hit: at the top dose activity change, negative = inhibition, usual class: inhibitors | 330,000 tested, 0.46% active | AID 720580; active means well fitted inhibition curve with a large enough effect; inconclusive means small, poorly fitted or top-dose-only effect; inactive means no such curve, though single readings can be large or run the other way; tested in A549 cells; also: nearly all actives have a fitted effect of over 30% in size; inactives centre near -10
# Active calls of the source: *; i = inactive; u = inconclusive; x = no result given; & = joins results of further samples; [ ] = dose if it differs, or a comment. % is scaled to controls: 0 for no effect and ±100 for the full control effect; potency is read from the fitted curve at half-maximal effect.
SMILES,Vaccinia mCherry,VACV Venus inh
COc1ccc(NC(=O)COc2coc(CN3CCN(c4ccccc4)CC3)cc2=O)cc1,-10%,-2%
O=C(COC(=O)c1ccc(Br)cc1)NCCN1C(=O)CSC1=O,i,-1%
Cc1cc(C(=O)NCCCN2CCOCC2)n(-c2ccccc2)n1,i,-5%
Cc1cc(C)cc(-n2cnc3cc(C(=O)NCCc4ccccc4)ccc32)c1,-24%,-24%
CCC(=O)Nc1cccc(-c2nc3ccccc3c(=O)o2)c1,-10%,0%
COc1cccc(NC(C)C(=O)Nc2cc([N+](=O)[O-])ccc2Cl)c1 (configuration not stated),-29%,-18%
CCOc1ccc(CCNC(=O)Cc2ccc(NC(=O)N3CCSc4ncccc43)cc2)cc1,-10%,-11%
CN(CCC1CCOCC1)C(=O)CC1C(=O)NCCN1Cc1ccoc1 (configuration not stated),-1%,-9%
C[C@@H]1NC(=O)N(c2ccc(F)cc2)C1=O,-15%,-10%
Cc1ccc(Cl)c2c1NC(=O)C2(O)CC(=O)c1ccc(Br)cc1 (configuration not stated),-19%,-4%
Cc1ccc(OCC(=O)Nc2ccccc2C(=O)OCc2cc(=O)n3nc(C4CC4)sc3n2)cc1,-23%,-23%
CCOc1ccc(-n2c(SCC(=O)N3CCOCC3)nc3c([nH]c4ccccc43)c2=O)cc1,-5%,-2%

# Taken from above (three entries):
SMILES,Vaccinia mCherry,VACV Venus inh
COc1ccc(NC(=O)COc2coc(CN3CCN(c4ccccc4)CC3)cc2=O)cc1,-10%,-2%
O=C(COC(=O)c1ccc(Br)cc1)NCCN1C(=O)CSC1=O,i,-1%
Cc1cc(C(=O)NCCCN2CCOCC2)n(-c2ccccc2)n1,i,-5%

# Next section.
SMILES,Vaccinia mCherry,VACV Venus inh
O=c1cc(NS(=O)(=O)c2ccccc2)nc(SCc2ccccc2Cl)[nH]1,-12%,-13%
CCn1ccc2cc(S(=O)(=O)N3CCC(C(=O)NCc4cccc(Cl)c4)CC3)ccc21,-22%,-17%
COc1ccc2oc(C(=O)OCC(=O)NC3(C#N)CCCC3)c(C)c2c1,-14%,-10%
Cc1ccc(NC(=O)Cn2ccsc2=N)cc1S(=O)(=O)N(C)C,i,-6%
CCC(=O)N1CCc2cc(S(=O)(=O)N3CCCCC3CC)ccc21 (configuration not stated),i,-13%
COc1ccc(C(CNC(=O)C(=O)NC2CCCC2)N2CCN(C)CC2)cc1 (configuration not stated),-15%,-8%
CCOC(=O)C(C)Sc1nnc(Cc2cc(=O)[nH]c(=O)[nH]2)n1-c1ccc(Cl)cc1 (configuration not stated),i,-3%
CCOC(=O)c1cc(-c2ccccc2)n(CC(=O)Nc2ccc(CC)cc2)c1C,-25%,-23%
Cc1ccc(Cl)cc1N1CCN(C(=O)c2cccn2-c2nnc(N3CCCC3)s2)CC1,-14%,-16%
O=C(C1CC1)N1CCc2cc(Br)cc(S(=O)(=O)Nc3ccc(C(F)(F)F)cc3)c21,-14%,-2%
Cc1ccc(Cl)cc1NC(=O)CN1C(=O)NC2(CCCCCC2)C1=O,-6%,-16%
COc1cc(/C=C2\SC(=O)N(CCNC(=O)c3c(C)noc3C)C2=O)cc(OC)c1OC,i,-14%
O=C1CC(c2ccccc2)=NO1,-2%,5%
CCOC(=O)c1[nH]c2ccc(Br)cc2c1NC(=O)CCN1CCN(C(=O)OCC)CC1,-12%,-7%
O=C(COC(=O)Cc1c[nH]c2ccccc12)Nc1cccc(Br)c1,-6%,-7%
CCOCCCNC(=O)c1ccc2nc(CCc3ccccc3)oc2c1,-13%,-15%
CCN(CC)S(=O)(=O)c1ccc(C)c(NC(=O)COc2ccc(Cl)cc2Br)c1,-20%,-20%
CCCCn1c(=O)c(CCC(=O)OC(C)C(=O)Nc2cccc(Cl)c2Cl)nc2ccccc21 (configuration not stated),-15%,-13%
Cn1cnc2cc(NC(=O)c3ccco3)ccc21,-14%,-9%
CCn1c(=O)c(C(=O)Nc2ccc(C)cc2)c(O)c2ccccc21,-14%,-6%
Cc1ccc(NC(=O)C2C3CCC(O3)C2C(=O)O)c(Br)c1 (configuration not stated),-5%,-11%
O=[N+]([O-])c1ccc(Cl)cc1,i,-12%
CC(C)C(=O)Nc1ccc(NC(=O)c2cccc3c(Br)cccc23)cc1,-15%,-10%
Cc1sc2nc(COC(=O)CNC(=O)c3ccc(C(C)(C)C)cc3)[nH]c(=O)c2c1C,-12%,-13%
CC1CCN(S(=O)(=O)c2cc(C(=O)N3CCN(c4cccc(Cl)c4)CC3)n(C)c2)CC1,-23%,-24%
CC(C)c1ccc(NC(=O)c2cccc3c2C(=O)N(C2CCCCC2)C3)cc1,u,-77%
C=C[C@@H]1c2ccccc2N(S(=O)(=O)c2ccc(C)cc2)[C@H](c2ccccc2)C1(C#N)C#N,-11%,-27%&-19%
Cc1cccc(C)c1NC(=O)C1(C)CSCC(=O)N1C1CCN(Cc2ccccc2)CC1 (configuration not stated),-19%,-2%
CC(NC(=O)c1ccccc1NC(=O)CSc1nnnn1C)c1ccccc1 (configuration not stated),x,-17%
COc1ccc(NC(=O)C2Cc3c(-c4ccccc4Oc4ccccc4)ccnc3O2)cc1OC (configuration not stated),-13%,-26%
O=C(Nc1ccccc1C(F)(F)F)c1cccnc1,-9%,-3%
CSCCC(NS(=O)(=O)c1ccc(C)cc1)C(=O)N1CCN(S(=O)(=O)c2ccc(F)cc2)CC1 (configuration not stated),-7%,-21%
COC(=O)Cn1c(=O)c2c(nc3n2CC(C)CN3Cc2ccccc2)n(C)c1=O (configuration not stated),-12%,-10%
COc1ccc(/C=N/NC(=O)CCNc2n[nH]c(=O)[nH]c2=O)c(OC)c1,-10%,8%
COc1ccc(NC(=O)CCOc2cc(C)ccc2C)cc1S(=O)(=O)N1CCCCC1,u,u
Brc1ccc(C2=CSC3=NCCN23)cc1,u,-12%
CC1=C(C(=O)N(C)C)CC(CC(=O)NCCc2ccccn2)C(=O)N1CCCN1CCCC1=O (configuration not stated),-18%,-16%
COc1ccc(OCC(=O)Nc2ccc3oc(-c4ccncc4)nc3c2)cc1,-2%,-2%
O=C(NCC(c1ccco1)N1CCN(c2ccc(F)cc2)CC1)C(=O)NC1CC1 (configuration not stated),-23%,-11%
CCOC(=O)c1sc(NC(=O)CSc2nc3ccccc3o2)c(C(=O)OCC)c1C,i,-14%
O=C(c1cccs1)N(Cc1ccc(F)cc1)C1CCS(=O)(=O)C1 (configuration not stated),-5%,15%
Cc1ccc(C(=O)N2[C@@H]3CN(C)C(=O)[C@@]2(Cc2ccccc2)[C@H]2C(=O)N(C)C(=O)[C@@H]32)cc1,-8%,-6%
CC(=O)N(Cc1ccc(F)cc1)c1cccc(C)c1C,-17%,-15%
C/C(=N/NS(=O)(=O)c1cccc([N+](=O)[O-])c1)c1c[nH]c2ccccc12,i,-8%
CCN(CC)CCCNC(=O)C(C)n1nc(C)n2c(cc3occc32)c1=O (configuration not stated),-13%,4%
O=S(=O)(c1ccccc1)[C@@]1(c2ccc(Br)cc2)C[C@@H]2ON=C(c3ccccc3)[C@@H]2C1,-1%,-8%
CCC(=O)NNc1nc2c(Cl)cccc2s1,u,-1%
Cc1noc(NC(=O)c2c(-c3c(Cl)cccc3Cl)noc2C)c1[N+](=O)[O-],-12%,-10%
COc1cc(C(=O)OCc2cc3ccccc3[nH]c2=O)cc(OC)c1OC,x,-10%
CN1C(=O)c2ccccc2C(C(=O)NCC2CCCO2)C1c1c[nH]c2ccccc12 (configuration not stated),x,13%
O=C(CNC(=O)c1nc[nH]c1C(=O)NCc1ccccc1)OCc1ccccc1,-28%,-12%
O=C(N/N=C/c1ccc(OC2CSC2)cc1)c1ccc(CN2CCOCC2)cc1,-14%,-12%
CN1C(=S)SC(/[N+]([O-])=C\c2ccco2)C1(C)C (configuration not stated),-17%,-6%
CCC1(CC)C(=O)C2=C3C1[C@H](C(=O)OC)C=C(C(=O)OC)C[C@H]3n1c(=O)n(-c3ccccc3)c(=O)n1[C@H]2C (some centres not stated),-10%,-4%
COc1ccc(C2/C=C\CNCC(=O)N2Cc2ccc(F)cc2)cc1 (configuration not stated),-10%,-6%
COc1ccccc1CCNC(=O)C1CCN(c2nnc(C)c3c(C)n(-c4ccc(C)cc4)nc23)CC1,14µM*,10µM*
CC1(C(=O)NS(=O)(=O)c2ccc(C#N)cc2)CCN1C(=O)Cc1cc(F)ccc1F (configuration not stated),1%,-2%
c1ccc(Cn2ncc3ccccc32)cc1,-12%,-2%
COc1ccc(C2N3CC4(C)CN2CC(c2ccccc2)(C3)C4=O)cc1 (configuration not stated),44%[activator],-10%
Cc1ccc([C@H]2Nc3ccc(S(=O)(=O)Nc4cccc(Cl)c4C)cc3[C@H]3C=CC[C@H]32)cc1,-5%,-6%

# (listing goes on)
SMILES,Vaccinia mCherry,VACV Venus inh
CCC1CCCCN1C(=O)Cn1c(=O)n(CCCCCC(=O)NCc2ccccc2Cl)c(=O)c2sccc21 (configuration not stated),-14%,-11%
Cc1ccc(CCNC(=O)C2CCN(S(=O)(=O)c3ccc4c(c3)CCC(=O)N4)CC2)cc1,30%[activator],0%
Cc1ccc(OCC(=O)NCC2CCCO2)c(C)c1 (configuration not stated),-4%,-11%
Nc1cccc(-c2nc3ccccc3s2)c1,-9%,-26%
Cc1nc(NC(=S)NC(=O)c2ccccc2)sc1C(=O)N(C)C,i,-6%
COc1cccc2c1N=C1CCCC3CN(C(C)=O)CCC123 (configuration not stated),-7%,-1%
CC(C)C[C@@H](CN1CCC[C@@H]1CN1C(=O)C(=O)NC[C@@H]1Cc1ccccc1)N1C[C@H](Cc2ccccc2)N(CC2CCCCC2)C(=O)C1=O,14%,-12%
COc1ccc2nc(SC(C)C(=O)NCC(=O)Nc3ccc(F)c(F)c3F)[nH]c2c1 (configuration not stated),-5%,-18%
O=C(CCc1nnc2ccc(NCc3ccco3)nn12)N1CCN(c2ccc(F)cc2)CC1,-18%,-3%
CCCCOc1cccc(C(=O)Nc2sc3c(c2C(=O)OCC)CCCC3)c1,-6%,4%
CCOc1ccc(NC(=O)CCNS(=O)(=O)c2ccc3c(c2)CCCC(=O)N3)cc1,8%,5%
Nc1ccc(C(=O)Nc2cccc(N)c2)cc1,-1%,-13%

# Structural class, the entries above with a nitro group on carbon (4)
SMILES,Vaccinia mCherry,VACV Venus inh
COc1cccc(NC(C)C(=O)Nc2cc([N+](=O)[O-])ccc2Cl)c1 (configuration not stated),-29%,-18%
O=[N+]([O-])c1ccc(Cl)cc1,i,-12%
C/C(=N/NS(=O)(=O)c1cccc([N+](=O)[O-])c1)c1c[nH]c2ccccc12,i,-8%
Cc1noc(NC(=O)c2c(-c3c(Cl)cccc3Cl)noc2C)c1[N+](=O)[O-],-12%,-10%

# (more compounds)
SMILES,Vaccinia mCherry,VACV Venus inh
CCOc1ccc2[nH]c(=O)c(CN(Cc3cccs3)C(CC)c3nnnn3C(C)(C)CC)cc2c1 (configuration not stated),u,u
CC1(C)S[C@@H]2[C@H](N3C(=O)C(c4ccccc4)NC3(C)C)C(=O)N2[C@H]1C(=O)O (some centres not stated),i,-14%
CCOc1ccccc1NS(=O)(=O)c1cn(C)nc1C,2%,-1%
Cc1ccc(OCCSc2nc3ccccc3n2CC(=O)N2CCOCC2)c(C)c1,-8%,-14%
CCOC(=O)c1cnc2cc(-c3ccc(C(C)(C)C)cc3)nn2c1N,x,-7%
O=C(c1cccc(Cl)c1)N(Cc1cccc(F)c1)C1CCS(=O)(=O)C1 (configuration not stated),-7%,-9%
O=c1[nH]c(=O)n(-c2ccc(F)cc2)c(O)c1C=Nc1ccccc1N1CCCC1,x,-8%
COc1ccc(OC)c(C(=O)c2ccc(C(=O)c3cc(OC)ccc3OC)cc2)c1,-15%,-3%
C#CCN(CC(=O)OCC)S(=O)(=O)CCNC1CC1,i,1%
COc1ccc(-c2ccc(CNc3ccc4[nH]c(=O)[nH]c4c3)o2)cc1Cl,-6%,-15%
Cc1cc(C)c(NC(=O)CSc2nc(=O)n(CCN3CCOCC3)c3c2CCCC3)c(C)c1,-9%,0%
CCCOc1ccc(N2C(=O)CC(N(CCc3ccc(OC)cc3)C(=O)c3ccccc3)C2=O)cc1 (configuration not stated),-20%,u
COc1ccc(OC)c(C2=NS(=O)(=O)N(C)C(C(=O)NCc3cccs3)=C2)c1,-8%[7.34 µM],0%[7.34 µM]
COc1ccccc1Nc1ccc(C(=O)O)cc1[N+](=O)[O-],i,-2%

# Complete entries, looked up by structure. Order of values: Vaccinia mCherry | VACV Venus inh
# Listed for O=C(COC(=O)c1ccc(Br)cc1)NCCN1C(=O)CSC1=O → i | -1%
# Listed for CCCCOc1cccc(C(=O)Nc2sc3c(c2C(=O)OCC)CCCC3)c1 → -6% | 4%
# Listed for CCN(CC)CCCNC(=O)C(C)n1nc(C)n2c(cc3occc32)c1=O (configuration not stated) → -13% | 4%
# Listed for CN1C(=O)c2ccccc2C(C(=O)NCC2CCCO2)C1c1c[nH]c2ccccc12 (configuration not stated) → x | 13%
